Source: PubChem BioAssay (National Center for Advancing Translational Sciences (NCATS))
Vaccinia Venus: vaccinia inhibition (Venus reporter); AID 720580; actives 0.46% (n = 330,000); Vaccinia virus Venus reporter expression, fluorescence; Potency, µM (series often up to 36.5 µM), for the others: top-dose activity change, negative = inhibition, most hits filed as inhibitors; active means well fitted inhibition curve with a large enough effect; inconclusive means small, poorly fitted or top-dose-only effect; inactive means no such curve, though single readings can be large or run the other way; tested in A549 cells; also: nearly all actives have a fitted effect of over 30% in size; inactives centre near -10
Vaccinia mCherry: inhibitors of vaccinia virus infection (mCherry reporter signal); Vaccinia virus mCherry reporter infection, fluorescence; about a quarter of the inactives have no number; Potency, µM (doses to about 36.5 µM), inactives show at the highest dose activity change, negative = inhibition, hits mostly inhibitors; actives 0.63% (n = 310,000); AID 720579; active = well fitted inhibition curve with a large enough effect; inconclusive = small, poorly fitted or top-dose-only effect; inactive = no such curve, though single readings can be large or run the other way; tested in A549 cells; also: nearly all actives have a fitted effect of over 35% in size; inactives centre near -10
* = called active by the depositor; i = inactive; ? = inconclusive; . = no result given; & = joins results of further samples; [ ] = another dose, or the depositor's remark. % is scaled to controls: 0 for no effect and ±100 for the full control effect; potency is read from the fitted curve at half-maximal effect.

SMILES	Vaccinia Venus	Vaccinia mCherry
Cc1cc(/C=C2/C(=O)NC(=O)N(Cc3ccco3)C2=O)c(C)n1-c1ccccc1	1%	-12%
CC1(OC(=O)CCc2ccccc2)C(=O)C=C2C=C(c3ccc(C#N)cc3)N(c3ccccc3)C=C2C1=O (stereo not given)	-12%	12%
COc1ccc(-c2nc(CSCC(=O)N3CCN(c4ccc(F)cc4)CC3)c(C)o2)cc1	?	?
CCn1c(SCC(=O)O)nnc1-c1ccccc1OC	-8%	-5%
CC(C)c1ccc(S(=O)(=O)N2CCN(C(=O)CN3C(=O)NC(C)(c4ccccc4)C3=O)CC2)cc1 (stereo not given)	-18%	-27%
C[C@H](CCC(=O)O)[C@H]1CC[C@H]2[C@@H]3CC[C@@H]4C[C@H](O)CC[C@]4(C)[C@H]3C[C@H](O)[C@]12C	-15%&-13%&18%	-4%&7%
CCn1c2ccccc2c2cc(NC(=O)c3ccccc3-c3ccccc3C(=O)O)ccc21	-8%	i
COc1ccc(OC)c(C2C(C(=O)Nc3ccc(C)cc3C)=C(C)Nc3c(C(=O)Nc4ccc(F)cc4)cnn32)c1 (stereo not given)	-21%	-10%
O=C(CSc1nc2c(cnn2-c2ccccc2)c(=O)[nH]1)c1ccc(Cl)cc1	8%	-13%
O=C(NCCN1CCNC1=O)C1CCC(=O)N(CCc2ccccc2)C1 (stereo not given)	-10%	i
Cc1cc(NC(=O)CSc2nccn2C)no1	-12%	i
CCCCCC(=O)N1CCN(S(=O)(=O)c2ccc3c(c2)OCCCO3)CC1	-10%	-21%
CC1CN(C(=O)Nc2ccc(C(=O)NCc3ccccc3F)cc2)c2ccccc2S1 (stereo not given)	-8%	-7%
COc1ccc(OC)c(NC(=O)C2CCN(S(=O)(=O)c3ccc(C)cc3)CC2)c1	-2%	-13%
COc1ccc(Cl)cc1Nc1nc2ccc(C(=O)c3ccccc3)cc2n2cnnc12	0%	-8%
O=C(CSc1nccn(-c2ccc3c(c2)OCCO3)c1=O)Nc1ccccc1	-15%	i
Cc1cc(Cl)n2ncc(-c3ccccc3)c2n1	-19%	i
Cc1cc(N2CCN(C(=O)c3ccco3)CC2)n2nc(C)nc2n1	5%	5%
C=CCNC(=O)C1COc2ccccc2O1 (stereo not given)	-4%	i
Cc1cc2oc3cc(NCCC4CCCN4C)ccc3c(=O)c2cc1C (stereo not given)	?	-18%
COc1ccc(F)cc1NC(=O)C1CCN(c2nc(-c3ccc(OC)c(OC)c3)no2)CC1	-5%	-8%
Cc1occc1C(=O)Nc1cnn(CCCC(=O)O)c1	-17%	-8%
CCCn1c(N)c(N(CCOC)C(=O)c2c(CC)noc2C)c(=O)[nH]c1=O	-4%	-10%
CCC(=O)c1ccc(OCc2cn(CC(=O)c3ccc(O)cc3)nn2)cc1	-5%	-5%
O=C1Nc2ccccc2C(=O)N2C[C@@H](O)C[C@H]12	-1%	-20%
O=S1(=O)C[C@H](N2CCOCC2)[C@@H](COCc2ccccc2)N1	4%	3%
N=c1ccn(Cc2ccccc2Cl)cc1	?	.
COc1ccc(OC)c(S(=O)(=O)Nc2cc3c(cc2C)n(C)c(=O)c(=O)n3C)c1	-7%[7.34 µM]	-3%[7.34 µM]
O=C(Nc1ccc(S(=O)(=O)Nc2nccs2)cc1)C1CC(=O)N(c2ccccc2)C1 (stereo not given)	-1%	i
O=C(c1ccc(Cl)cc1[N+](=O)[O-])N1CCOCC1	10%	4%
COc1ccc(CN(C)CCCn2cnc(C(=O)Nc3ccc(C)c(C)c3)n2)cc1OC	-15%	i
Fc1ccc(OCc2nc(-c3ccncc3)n[nH]2)cc1	-8%	-9%
COC(=O)c1ccc(CNC(=O)c2ccc(S(=O)(=O)N3CCCCCC3)cc2)cc1	2%	-12%
CCCNC(=O)C1(C)CCCN(Cc2cc(-c3ccccc3)nn2C)C1 (stereo not given)	-1%	7%
c1cc2c3c(c1)CCCN3CCC2	-25%	-10%
Cc1cc(N2CCN(C(C(=O)NC3CCCC3)C(C)C)CC2)c2ccccc2n1 (stereo not given)	-17%	11%
Cc1nnc(NC(=O)c2oc3ccccc3c2C)s1	-5%	-1%
COc1ccc(-n2ccnc(NCc3ccc(C)cc3)c2=O)cc1OC	-4%	i
Cc1ccc(NCc2nnc(SCC(=O)NCCc3ccccc3)n2C)cc1	-5%	-15%
C[C@H]1CN([C@@H](C)CO)C(=O)CCCn2nncc2CO[C@@H]1CN(C)Cc1cccc2c1OCCCO2	-2%	i
Cc1cc(NC(=O)CSc2nc3c(c(=O)n2-c2ccc(Cl)cc2)SCC3)no1	-7%	-14%
Cc1ccc(C(=O)C2=C(O)C(=O)N(Cc3ccco3)C2c2cccc(Cl)c2)o1 (stereo not given)	1%	i
O=C(CNCc1cccs1)Nc1ccc(OC(F)(F)F)cc1	-19%	-15%
CN1CCN(C(=O)c2ccccc2NC(=O)c2sc3ccccc3c2Cl)CC1	-8%	-1%
CC(=O)c1nn(-c2cccc(C(F)(F)F)c2)c(=O)[nH]c1=O	-8%	-20%
COc1ccc(Br)cc1C(=O)Nc1cc(C)cc(C)c1	-9%	-15%
O=C(NCc1nnc(SCC(=O)N2CCCC2)o1)c1ccc(F)cc1	2%	-6%
CCN(C(=O)COC(=O)c1ccc(Cl)cc1N)C1CCCCC1	-10%	i
COc1cccc(NC(=O)N2CCc3nc(Nc4cc(Cl)cc(Cl)c4)ncc3C2)c1	?	i
Cc1ccccc1/C=C1\CCCc2ccccc2C1=O	-3%	-1%
O=C(NC1CCCC1)C(c1ccc(Cl)cc1)N1CCOCC1 (stereo not given)	0%	-6%
C/C(N)=C(/C#N)C(=O)COC(=O)CC1CCCC1	8%	-9%
O=C(COC(=O)c1ccco1)Nc1nnc(-c2ccccc2)o1	-13%	-18%
O=C(O)C(=O)/C(=C\c1ccc(Cl)cc1)c1ccc2ccccc2n1	-17%	-13%
COc1ccccc1-c1nc2n(n1)C(c1ccccc1Cl)C(C(=O)Nc1cccnc1)=C(C)N2 (stereo not given)	-4%	-4%
NS(=O)(=O)c1cccc(NC(=O)c2cccc(-c3ccc(O)cc3)c2)c1	0%	-19%
O=C(Nc1cc(Cl)ccc1C(=O)O)c1ccc(CN2C(=O)c3ccccc3C2=O)cc1	-17%	-2%
O=C(O)C1(c2ccccc2)CCN(S(=O)(=O)c2ccc(Br)cc2)CC1	8%	-6%
O=C(O)COc1ccc(Oc2ccccc2)cc1	-5%	.
Cc1cc(=O)oc2cc(N3C(=O)CC(Cc4ccccc4)C3=O)ccc12 (stereo not given)	-6%	?

Other compounds
SMILES	Vaccinia Venus	Vaccinia mCherry
CCc1cccc(C)c1NC(=O)CN(C)Cc1ccc(Br)cc1	-7%	-9%
COc1cc(/C=C(\C#N)c2ccccn2)ccc1OCC(=O)Nc1cccc(C(F)(F)F)c1	-19%	i
CCOc1cc(CNCCSc2nnnn2C)cc(Br)c1OCc1ccccc1F	-29%	-22%
CCOC(=O)N1CCN(C(=O)C2CCN(C(=O)Nc3ccccc3)CC2)CC1	-11%	-22%
COc1ccccc1C1=Nn2c(nnc2C2CCCCC2)SC1	-19%	-27%
COc1ccc(Nc2nc(NCc3cccs3)nc3ccsc23)cc1OC	?	?
O=C(Cn1nc(-c2ccccc2)ccc1=O)N1CCOCC1	-3%	i
COc1ccc(C(=O)NNC(=O)c2ccc(C)cc2)cc1S(=O)(=O)N1CCCC1	10%	i
CCOC(=O)CN(C(=O)Cn1nnc2ccccc21)C(C(=O)NCCOC)c1ccccc1 (stereo not given)	-12%	-12%
CN1CCN(S(=O)(=O)c2ccc(F)cc2)CC1	-8%	-26%
CC(C)CCNC(=O)Cc1c(C(=O)O)[nH]c2ccc(Cl)cc12	-15%	.
O=C(Nc1ccc(Br)cc1)c1cccc(C(=O)Nc2ccc(Br)cc2)c1	-17%	-19%
COCCn1nnnc1C(C(C)C)N1CCC(Cc2ccccc2)CC1 (stereo not given)	-12%	i
COC(=O)c1[nH]c2ccc(C)cc2c1NC(=O)c1ccccc1[N+](=O)[O-]	-7%	i
Cc1ccc(S(=O)(=O)N2CCN(Cc3nnc(-c4c(-c5ccccc5)noc4C)o3)CC2)cc1	-4%	i
COc1c2ccc(C(=O)NCc3cc(C(F)(F)F)cc(C(F)(F)F)c3)cc2nn1C	-12%	4%
C/C(=N/NC(=O)c1cccs1)c1ccc(N2CCOCC2)cc1	-4%	-12%
OCC[C@@H]1C[C@@H](O)[C@H](O)[C@]2(CCCc3ccccc3O2)O1	0%	i
CC(C)COc1ccc(C(=O)Nc2ccc(SC(F)F)cc2)cc1	-10%	i
Cc1cc(C)c2[nH]c(=O)c(CN(CC3CCCO3)C(=S)Nc3ccccc3)cc2c1 (stereo not given)	-6%	-10%
Cc1ccc(OCCOC(=O)Nc2ccccc2)cc1	-15%	-11%
Cc1ccc(O)c(CNc2cnc3ccccc3c2)c1	-24%	13µM*
Cc1cc(C)n2nc(N)c(N=Nc3cccc(Cl)c3)c2n1	-24%	i
CS(=O)(=O)N(CC(=O)N1CCOCC1)c1cccc(F)c1	-6%	-13%
O=C(Nc1ccc(SC(F)F)cc1)c1ccccc1F	-14%	12%
CCOC(=O)c1sc(-c2ccccc2)nc1C	-9%	i
O=[N+]([O-])c1ccccc1S(=O)(=O)N1CCN(c2nc(-c3cccs3)nc3ccccc23)CC1	-15%	-16%
Cc1nn(-c2ccccc2)c2sc(C(=O)OCc3nnc(-c4ccccc4)o3)cc12	13%	4%
Cc1cccc(C(=O)Nc2cccc(C(=O)OCc3cc(=O)n4nc(C(C)C)sc4n3)c2)c1	-18%	i
Cc1cccc(C)c1NC(=O)C(c1ccccc1)N1CC(=O)Nc2ccccc21 (stereo not given)	-6%	-10%
O=Nc1ccc(NO)c2ccccc12	-7%	-16%
CCN(CC)Cc1ccc(Nc2ccnc3cc(Cl)ccc23)cc1O	-14%	i
CCS(=O)(=O)NCc1cn2ccsc2n1	-4%	.
CN(C(=O)c1cccc(NC(=O)Cc2ccc([N+](=O)[O-])cc2)c1)C1CCC1	?	?
Nc1cccc(-n2cccc2)c1	-14%	-9%
CC(=O)c1ccc(OCC(=O)N2CCCC2c2ccc3c(c2)OCCCO3)cc1 (stereo not given)	-11%	i
COc1ccc(C2C(C#N)=C(N)Oc3n[nH]c(C)c32)cc1Cn1nc(C)c([N+](=O)[O-])c1C (stereo not given)	-7%	-19%
O=C(NCc1ccccc1)c1ccc2c(c1)nc1n2CCOC1	-13%	-17%
O=C(NNS(=O)(=O)c1ccc(Cl)cc1)c1cc(-c2ccccc2)nc2ccccc12	-9%	-4%
CC(C)Oc1cccc(C(=O)Nc2ccc3oc(-c4ccccc4)nc3c2)c1	-23%	-22%

Entries of single compounds, looked up by structure. Order of values: Vaccinia Venus, Vaccinia mCherry
Profile of `CCN(CC)Cc1ccc(Nc2ccnc3cc(Cl)ccc23)cc1O` : -14%, i
Profile of `CN(C(=O)c1cccc(NC(=O)Cc2ccc([N+](=O)[O-])cc2)c1)C1CCC1` : ?, ?
Profile of `CC(=O)c1ccc(OCC(=O)N2CCCC2c2ccc3c(c2)OCCCO3)cc1` (stereo not given) : -11%, i
Profile of `Cc1cccc(C(=O)Nc2cccc(C(=O)OCc3cc(=O)n4nc(C(C)C)sc4n3)c2)c1` : -18%, i
Profile of `O=Nc1ccc(NO)c2ccccc12` : -7%, -16%

The listing picks up, starting 5 compounds before the break.
SMILES	Vaccinia Venus	Vaccinia mCherry
CC(=O)c1ccc(OCC(=O)N2CCCC2c2ccc3c(c2)OCCCO3)cc1 (stereo not given)	-11%	i
COc1ccc(C2C(C#N)=C(N)Oc3n[nH]c(C)c32)cc1Cn1nc(C)c([N+](=O)[O-])c1C (stereo not given)	-7%	-19%
O=C(NCc1ccccc1)c1ccc2c(c1)nc1n2CCOC1	-13%	-17%
O=C(NNS(=O)(=O)c1ccc(Cl)cc1)c1cc(-c2ccccc2)nc2ccccc12	-9%	-4%
CC(C)Oc1cccc(C(=O)Nc2ccc3oc(-c4ccccc4)nc3c2)c1	-23%	-22%
CS(=O)(=O)N1CCC(C(=O)Nc2cc(Cl)ccc2Cl)CC1	-8%	i
O=C1[C@@H]2[C@@H]3C[C@@H]([C@H]4ON=C(c5ccc(Cl)cc5)[C@@H]34)[C@@H]2C(=O)N1C1CCCCC1	-22%	-5%
Cc1cnc2ncc3sccc3c2c1	-5%	0%
COc1cccc(Nc2ncnc3ccccc23)c1	-12%	-25%
CN(Cc1ccc(F)cc1)C(=O)CN1CCN(S(=O)(=O)c2ccc3c(c2)OCCCO3)CC1	-29%	?
COC(=O)c1cccc(CN2C(=O)C(C)Sc3ccc(C)cc32)c1 (stereo not given)	-3%	-2%
COC(=O)[C@H](Cc1ccccc1)N(Cc1ccc(C)cc1)S(C)(=O)=O	-28%	-13%
CC(=O)c1ccc(NC(=O)COc2ccccc2C(=O)Nc2ccc(C)cn2)cc1	-18%	-10%
